Bioassay records from PubChem BioAssay.
ClpP mod – qHTS Assay for Activators of ClpP. 340,000 compounds, 1.9% hits. purified B. subtilis ClpP, FRET peptide cleavage, 20 min. Potency, µM (top dose mostly 57.5 µM), inactives show top-dose activity change, negative = active; active = well fitted falling curve with a large enough effect; inconclusive = small, poorly fitted or top-dose-only effect; inactive = no such curve, though single readings can be large or run the other way; further: potency means the concentration at half of the fitted maximal effect; the source files actives as falling curves though it sought activators and does not explain the sign; nearly all actives have a fitted effect of over 65% in size; many hits overshoot -100%
Target sequence (P80244 whole entry, looked up): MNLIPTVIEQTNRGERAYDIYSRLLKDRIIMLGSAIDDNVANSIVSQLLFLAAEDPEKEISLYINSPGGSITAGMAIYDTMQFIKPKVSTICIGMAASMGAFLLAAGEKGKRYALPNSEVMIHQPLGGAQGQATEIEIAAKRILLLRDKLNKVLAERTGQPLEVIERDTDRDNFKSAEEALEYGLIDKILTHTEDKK
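ClpP 10 microg/mL final, pH 8 Tris/KCl buffer with BSA, glycerol, Tween-20; compound pinned in; FRET-FV substrate; RT 20 min; Ex320/Em430; ΔFRET vs ADEP 5.8 microM, DMSO, no enzyme.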
Sfp inh – Sfp phosphopantetheinyl transferase inhibition; Biochemical Sfp PPTase activity, qHTS; Q9F4F7; 310,000 compounds, 3.5% hits; Potency, µM, for the others: max response, negative = inhibition, most hits filed as inhibitors; active means well fitted inhibition curve with a large enough effect; inconclusive means small, poorly fitted or top-dose-only effect, or another doubt; inactive means no such curve, though single readings can be large or run the other way;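 further: the enzyme is Sfp with the accession as filed and its product quenches rhodamine fluorescence; potency means the concentration at half of the fitted maximal effect; 0% = enzyme reaction without inhibitor and -100% = no enzyme wells; top concentration of the series not given in the record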
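With Hepes-Na pH 7.6 buffer containing 10 mM MgCl2, Sfp (15 nM) modified BHQ-2-YbbR (12.5 uM) using rhodamine-CoA (5 uM). Two reads 30 minutes apart at 525/598 nm yielded each well's rate.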
gsp antag – antagonists of gsp mutant (McCune-Albright syndrome). gsp-mutant cells, cAMP HTRF, 30 min; control for the full effect not named in the record. Potency, µM (highest dose often 76.9 µM), without a hit: at the top dose activity change, negative = inhibition, most hits filed as inhibitors. 340,000 compounds, 0.4% hits; active = falling curve of any shape with a large fitted effect; inconclusive = falling curve, mostly with a smaller effect; inactive = flat or rising curve; cell line not stated here;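 further: intracellular cAMP measured with PDE inhibitor Ro 20-1724 present during compound exposure; potency means the concentration at half of the fitted maximal effect; on the % scale 0 is the no-effect control and ±100 the full control effect; nearly all actives have a fitted effect of over 65% in size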
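HTRF cAMP read-out (cAMP-d2 plus anti-cAMP antibody-K in lysis buffer, 30 min RT). Before lysis, cells are exposed to compounds with […] for 30 min at 37C in DPBS containing Ca/Mg, BSA and Tween 20.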
TRPV1 potentiator – human TRPV1 potentiation. TRPV1-expressing cells, Fluo-8 calcium influx, capsaicin EC20 potentiation; host cell line not named in the record; control for the full effect not named in the record. 320,000 compounds, 0.02% hits. AID 540277. Q8NER1. potentiation, % at 8.33 µM; active means potentiation above 80%; inconclusive means 30% to 80%; inactive means below 30%; further: 0% is about no effect
Target sequence (Q8NER1 whole entry, looked up): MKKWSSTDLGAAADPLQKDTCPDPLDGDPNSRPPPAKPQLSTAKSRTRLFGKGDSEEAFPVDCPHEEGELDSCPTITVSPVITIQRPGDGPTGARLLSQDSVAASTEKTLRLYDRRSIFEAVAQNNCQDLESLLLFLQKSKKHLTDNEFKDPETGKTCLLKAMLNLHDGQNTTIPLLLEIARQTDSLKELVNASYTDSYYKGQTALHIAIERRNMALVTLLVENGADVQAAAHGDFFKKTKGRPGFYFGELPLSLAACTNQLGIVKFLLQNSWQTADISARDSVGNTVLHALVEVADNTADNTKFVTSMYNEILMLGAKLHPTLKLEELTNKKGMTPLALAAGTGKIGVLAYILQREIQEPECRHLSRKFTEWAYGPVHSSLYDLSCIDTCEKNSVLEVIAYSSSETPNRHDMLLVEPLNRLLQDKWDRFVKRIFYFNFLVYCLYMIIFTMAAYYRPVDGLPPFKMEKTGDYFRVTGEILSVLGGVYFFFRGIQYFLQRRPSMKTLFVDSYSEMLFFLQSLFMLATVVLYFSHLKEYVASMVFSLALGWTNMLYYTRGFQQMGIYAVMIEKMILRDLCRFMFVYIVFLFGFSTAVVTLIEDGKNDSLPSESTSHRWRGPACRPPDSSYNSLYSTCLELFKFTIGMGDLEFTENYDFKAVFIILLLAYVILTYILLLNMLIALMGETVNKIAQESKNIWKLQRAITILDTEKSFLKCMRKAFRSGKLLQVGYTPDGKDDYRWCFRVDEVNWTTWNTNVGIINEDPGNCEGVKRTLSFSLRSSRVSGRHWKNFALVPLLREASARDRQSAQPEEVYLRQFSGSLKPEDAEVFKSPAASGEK
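TRPV1-expressing cells were cultured overnight at 35.5C and loaded with Fluo-8 calcium dye for 40 to 90 min at room temperature. After a 10 s baseline, compound was added and calcium influx was read kinetically for 3 min (ex 480/em 520 nm).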
Menin MLL FP FL – inhibitors of human menin-MLL interaction, wild-type MLL peptide. 290,000 tested, under 10 active. AID 1766. FP activity change, % at 61.4 µM. Fluorescence polarization, fluorescein-MLL peptide displacement from menin; inconclusive = falling polarisation curve, or a change in total fluorescence; inactive = total fluorescence flat and polarisation flat or rising; no compound was filed as active; the % refers to the polarisation; negative = inhibition;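 further: % of control where 0% means no effect; inhibitors lower the polarisation; unlabelled MLL peptide was the positive control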
CtBP-E1A inh – blocks the CtBP interaction with E1A; AlphaScreen GST-E1A/His-CtBP binding, 1536-well; hits give low values; control for the full effect not named in the record; activity change, % (test concentration not listed); 340,000 compounds, 0.49% hits; AID 651724; in the data active means activity change below about -65%; inconclusive means about -30% to -65%; inactive means above about -30%; further: on the % scale 0 is the no-effect control and ±100 the full control effect
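AlphaScreen with 125 nM GST-E1A and 125 nM His-CtBP (5X stocks) in Tris pH 8.0, 300 mM NaCl, BSA, Tween 20, TCEP. Compounds preincubated 2 h at 37 deg C, then glutathione donor/nickel acceptor beads added for 1 h at 37 deg C in dark.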
gsp agonist – agonists of gsp mutant (McCune-Albright syndrome); gsp mutant cells, cAMP HTRF, 30 min; control for the full effect not named in the record; Potency, µM (titrated, usually from 76.9 µM), inactives show at the highest dose activation (cAMP increase), actives largely listed as activators; 340,000 compounds, 0.13% hits; AID 624287; active = well fitted activation curve with a large enough effect; inconclusive = small, poorly fitted or top-dose-only effect, or another doubt; inactive = no such curve, though single readings can be large or run the other way; cell line not stated here;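 further: phosphodiesterase inhibitor Ro 20-1724 added with compounds to block cAMP breakdown; potency means the concentration at half of the fitted maximal effect; nearly all actives have a fitted effect of over 60% in size; about a fifth of the inactives were tested at one dose only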
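Cells in DMEM/10% FBS with G418 were pretreated with compounds in DMSO plus […] (300 uM stock) for 30 min at 37C. cAMP was measured by HTRF (cAMP-d2 plus anti-cAMP antibody-K) after 30 min at room temperature.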
Starred values were filed as active, the others as inactive; ? = inconclusive; nt = no result given; [ ] = another dose, or the depositor's remark. Compounds as they come; 5.3% or so of the library scored in one or more.

SMILES	ClpP mod	Sfp inh	gsp antag	TRPV1 potentiator	Menin MLL FP FL	CtBP-E1A inh	gsp agonist
CCN(CC)C(=O)CSc1nc(OC)cc(=O)[nH]1	-0.4%	6.9%	2.7%	-1.6	6.0	2.0	-3.2%
Cc1cc(C(F)F)n2nc(C(=O)Nc3ccc(S(=O)(=O)NC45CC6CC(CC(C6)C4)C5)cc3)nc2n1	0.1%	-6.7%	-14.4%	-9.2	-0.2	-15.4	-24.7%
CN(CC(=O)Nc1ccccc1Cl)C(=O)c1ccc(N2CCCCCC2)c([N+](=O)[O-])c1	1.5%	nt	-33.9%	-14.2	nt	-23.5	-27.4%
O=C(Nc1ccc(N2CCOCC2)cc1N1CCOCC1)c1cccs1	-0.2%	11.6%	0.3%	25.3	-0.9	0.4	-8.1%
O=C(NCc1cccs1)C(Cc1ccccc1)NS(=O)(=O)c1cccs1 (stereo not given)	-9.0%	7.9%	-14.8%	7.9	0.4	2.0	-2.3%
CCn1cc(CN2CCC(C(=O)Nc3cccc(-c4cscn4)c3)CC2)cn1	0.9%	-0.5%	9.1%	-3.3	-2.0	11.3	?
COC(=O)[C@H](Cc1ccccc1)NC(=O)Cn1ccc(NC(=O)OCc2ccccc2)nc1=O	-5.5%	nt	2.3%	-3.2	nt	-10.2	-18.5%
CN(C)S(=O)(=O)c1cccc(C(=O)Nc2cc(S(=O)(=O)N3CCOCC3)ccc2N2CCCC2)c1	1.0%	nt	-13.1%	nt	nt	0.5	-2.0%
O=S(=O)(Nc1c(F)cccc1F)c1ccc2c(c1)OCCO2	-0.6%	31.6%[activator]	-0.7%	-3.4	-0.7	8.5	-0.7%[15.4 µM]
COCCNC(=O)C1CC(c2cccc(F)c2)=NO1 (stereo not given)	-1.6%	12.6%	14.8%	-16.9	-0.5	14.2	-16.4%
Cc1cccc(CCNC(=O)c2cc(=O)[nH]c3ccc(Br)cc23)c1	nt	15.6%	nt	6.2	1.1	nt	nt
CCS(=O)(=O)N1CCCC(C(=O)NC2CCCC2)C1 (stereo not given)	-0.8%	17.3%	-1.9%	-2.0	4.4	6.1	-18.6%
CC(C)c1ccc(/C=N/n2cnnc2)cc1	nt	1.5%	-1.0%	-8.5	1.2	1.3	29.8%
Cc1ccc([N+](=O)[O-])cc1NC(=O)CNC1CCCCC1	0.4%	-4.3%	14.2%	?	-4.6	0.0	7.2%[15.4 µM]
COC(=O)CSc1nc2sc3c(c2c(=O)n1-c1ccc(OC)cc1)CCN(C)C3	nt	-2.5%	-1.5%	24.7	-2.9	0.6	-14.5%
CC(OC(=O)c1cc[n+]([O-])cc1)C(=O)NCc1ccccc1 (stereo not given)	2.0%	nt	8.6%	11.2	nt	-1.2	15.3%[15.4 µM]
O=C(NN1C(=O)C2C(C1=O)C1C=CC2C12CC2)c1ccncc1 (stereo not given)	2.1%	9.4%	7.1%	-8.0	-1.4	10.2	26.9%
COc1ccsc1NC(=O)OCc1ccc(Cl)cc1	1.5%	-13.1%	6.7%	-5.7	8.1	nt	11.1%
COc1ccccc1CNC(=O)c1cnn2c(C(F)F)cc(C)nc12	-4.4%	10.3%	19.9%	4.3	0.0	-3.7	-5.5%
CCc1cc(=S)n2c([nH]c3ccccc32)c1C#N	nt	44.7µM*	nt	8.8	?	-13.2	17.2%[15.4 µM]
CCN1C(=O)/C(=C\N(C)C)S/C1=N\S(=O)(=O)c1ccccc1	nt	-3.2%	-0.3%	-5.2	3.0	6.8	6.8%[15.4 µM]
CCN1/C(=C\C=C2\C(=O)N(C)C(=S)N2C)Sc2ccccc21	nt	39.8µM*	9.4%	?	?	nt	-7.2%[15.4 µM]
CCOc1ccc(C(=O)Nc2cc(NC(=O)c3ccc(OCC)c(Cl)c3)cc(C(=O)O)c2)cc1Cl	nt	2.4%	-9.2%	14.6	0.5	-7.6	1.1%
COc1cc(C2CC(=O)c3c(O)cc(O)cc3O2)ccc1O (stereo not given)	0.7%	12.0%	-12.7%	8.5	-0.4	0.0	nt
C[C@H](CO)N1C[C@H](C)[C@@H](CN(C)C(=O)Nc2ccccc2)Oc2ncc(C#CC3CCCCC3)cc2C1=O	-0.1%	nt	nt	nt	nt	-2.6	?

(further entries)
SMILES	ClpP mod	Sfp inh	gsp antag	TRPV1 potentiator	Menin MLL FP FL	CtBP-E1A inh	gsp agonist
CCOc1ccc(S(=O)(=O)NC2CC2)cc1C(N)=O	nt	6.4%	20.6%	8.1	-0.8	nt	-1.9%[15.4 µM]
COc1cccc(-c2nn(Cc3ccccc3)cc2CO)c1	nt	13.5%	0.8%	12.4	-1.7	-13.5	-3.7%[15.4 µM]
CCc1c(C)nc2ncnn2c1N1CCC(C(=O)N2CCN(c3ccccc3)CC2)CC1	nt	5.9%	nt	-1.2	2.0	nt	nt
CCc1nc2sc3c(O)cc(=O)[nH]c3c2cc1C	nt	?	2.2%	3.7	-5.5	-6.5	0.6%
O=C(O)CCN1C(=O)C2CCCCC2C1=O (stereo not given)	0.2%	2.1%	15.1%	23.0	6.0	3.7	3.9%
O=C(COc1ccccc1)N1CCN(S(=O)(=O)c2ccc(Br)cc2)CC1	-1.9%	7.5%	2.3%	13.9	nt	nt	2.7%
O=C(CCc1ccccc1)NNC(=O)Nc1ccc(F)c(Cl)c1	1.3%	6.6%	-5.8%	-1.8	-0.6	-3.1	12.9%
C=CCn1c(SCC(=O)c2ccc(O)c(O)c2)nnc1-c1cccc(OC)c1	-3.0%	nt	-13.9%	1.9	nt	-2.3	nt
Cc1c(NC(=O)COC(=O)/C=C/c2cccc(Br)c2)c(=O)n(-c2ccccc2)n1C	-1.5%	nt	-16.4%	5.8	nt	?	-10.3%
O=C(CCC(=O)OCC(=O)c1ccc(Br)cc1)Nc1cccc2cccnc12	0.3%	11.7%	1.1%	11.2	0.8	3.2	-1.2%
CC(=O)NC1=NN(C(C)=O)C(C)(CC(=O)OC(C)(C)C)S1 (stereo not given)	nt	9.3%	-2.6%	-7.7	-3.8	0.0	8.7%[15.4 µM]
COC(=O)c1ccc(N2CCN(CCNC(=O)Nc3ccc(OC)cc3)CC2)cc1	0.3%	21.6%	-9.3%	-34.7	0.8	17.1	-4.8%
COc1ccc(/C=C(\CC(=O)O)c2nc3ccccc3s2)cc1O	nt	-5.6%	-29.6%	15.8	0.1	2.9	26.1%[15.4 µM]
Nc1ncc([N+](=O)[O-])cc1Br	-0.5%	15.4%	-2.2%	-6.0	4.3	4.7	-2.1%
CC(=O)c1ccc(OCC(O)CN2CCOCC2)cc1 (stereo not given)	0.4%	8.2%	8.6%	nt	6.5	9.3	-76.9%[inhibitor]
Cc1ccc2c(CC(=O)NC3=NCCS3)coc2c1	-0.2%	4.9%	1.9%	-36.7	-0.4	-0.2	5.0%
COCCOC(=O)c1c(NC(=O)CNCc2ccco2)sc(C(N)=O)c1C	nt	-12.2%	-7.3%	-6.1	?	-15.4	12.1%
CC(=O)c1cn(CC(=O)NCc2cccnc2)c2ccccc12	-2.9%	5.4%	-10.2%	-1.9	-0.4	2.7	1.9%
Cc1ccc(S(=O)(=O)N2CCCCC2)cc1NC(=O)Cc1cccs1	-1.5%	nt	-13.9%	nt	nt	-2.0	-0.7%
O=C(NCc1ccccn1)C(=O)N/N=C/c1ccccc1O	nt	3.6%	-2.9%	-3.6	4.8	?	-35.6%[15.4 µM]
CC(=O)N/C(=C\c1ccc(C)cc1)C(=O)O	-0.9%	8.5%	-2.0%	?	4.4	nt	28.3%
CCOC(=O)c1nn(-c2ccccc2)c(=O)cc1OCC(=O)Nc1ccccc1OCC	0.6%	nt	5.6%	3.7	nt	6.4	3.7%[15.4 µM]
CCCN(CC(=O)Nc1ccccc1Br)CC(=O)Nc1ccc(F)c(F)c1F	0.8%	-4.4%	-11.9%	2.4	-1.7	3.5	-9.1%
CCCC(=O)N(CCN1CCOCC1)c1nc2ccc(OCC)cc2s1	0.9%	4.6%	-7.3%	-1.3	-8.7	-5.3	1.0%
O=S(=O)(Cc1ccccc1)N1CCN(C/C=C/c2ccccc2)CC1	-2.2%	14.6%	-0.1%	14.6	3.0	0.6	1.3%

(more compounds)
SMILES	ClpP mod	Sfp inh	gsp antag	TRPV1 potentiator	Menin MLL FP FL	CtBP-E1A inh	gsp agonist
CCOc1ccc(S(=O)(=O)Nc2cccc(C(=O)N3CC(C)OC(C)C3)c2)cc1 (stereo not given)	1.5%	nt	-13.0%	8.0	nt	1.4	-14.2%
COc1ccc(-c2nc3cccc(C)n3c2NCC2CCCO2)cc1O (stereo not given)	-0.3%	?	-11.4%	1.6	-27.4	-14.1	17.9%[15.4 µM]
COc1ccc(S(=O)(=O)Nc2ccc3c(c2)C(=O)N([C@H](C)CO)C[C@H](C)[C@@H](CN(C)C(=O)Nc2ccccc2)O3)cc1	2.4%	nt	1.5%	nt	nt	1.6	5.7%
c1ccc(N2CCN(C3CCSC3)CC2)cc1 (stereo not given)	1.4%	?	8.8%	-2.2	-2.6	-23.7	-1.3%
COCCSc1nnc(NC(=O)Cc2ccc(OC)cc2)s1	-2.0%	8.4%	0.8%	-12.6	4.1	nt	-0.3%
O=C(CSc1nnc(NC(=O)c2ccco2)s1)Nc1ccccc1	0.5%	-4.0%	-20.1%	0.2	0.0	nt	?
COC(C(=O)NNS(=O)(=O)c1ccccc1[N+](=O)[O-])c1ccccc1 (stereo not given)	-0.9%	6.7%	6.2%	10.3	0.2	3.9	0.7%
Cc1cccc(NC(=O)CSc2nc3[nH]ncc3c(=O)n2-c2ccccc2)c1	nt	6.7%	nt	14.1	2.0	nt	nt
O=C(O)c1cc(-c2c[nH]c3ccccc23)nc2ccc3ccccc3c12	nt	17.3%	1.2%	15.4	-2.8	-10.5	2.0%[15.4 µM]
O=C1/C(=C/c2ccncc2)SC(=S)N1C1CCCCC1	1.4%	0.9%	7.4%	-14.0	-0.6	1.6	-7.2%
Cc1cccc(Nc2nc(N3CCOCC3)nc(N3CCOCC3)n2)c1	nt	4.2%	-6.8%	1.4	-2.6	3.5	-12.7%
CCCC1(CCC)NC(=O)N(CC(=O)N2CCN(C(=O)c3ccco3)CC2)C1=O	-0.2%	5.1%	1.0%	2.6	-3.4	4.0	-9.7%
O=C(NCc1ccccc1C(F)(F)F)C1CC(c2cc(C(F)(F)F)cc(C(F)(F)F)c2)=NO1 (stereo not given)	0.1%	5.0%	0.2%	-61.2	4.7	nt	0.6%
